UCH37 DUB inh = inhibitors of human UCH37 deubiquitinase, primary screen, biochemical, Ub-AMC cleavage, fluorescence; Ubiquitin carboxyl-terminal hydrolase isozyme L5 (Homo sapiens), Q9Y5K5; purified proteasome/UCH37; inhibition, % (concentration not given with the values); 330,000 compounds, 0.33% hits; AID 588478, 2011;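 active means mean of two replicates above 20%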;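 further: 0% = compound-free wells with enzyme and 100% = wells lacking proteasome; stock transfer was 100 nL into about 20 µL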
Target sequence (Q9Y5K5 whole entry, looked up): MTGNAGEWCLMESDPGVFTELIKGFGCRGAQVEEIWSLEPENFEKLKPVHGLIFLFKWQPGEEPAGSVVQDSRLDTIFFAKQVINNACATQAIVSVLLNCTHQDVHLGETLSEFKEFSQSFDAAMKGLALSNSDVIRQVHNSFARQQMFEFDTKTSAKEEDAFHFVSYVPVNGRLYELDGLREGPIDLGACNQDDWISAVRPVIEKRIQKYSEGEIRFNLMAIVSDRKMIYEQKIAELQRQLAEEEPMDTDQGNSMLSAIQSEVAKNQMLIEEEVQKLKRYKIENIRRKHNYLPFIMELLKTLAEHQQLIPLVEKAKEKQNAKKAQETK
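Schedule: 30 min plus 25 min, room temperature / Material: human UCH37 within purified proteasomes / Technique: AMC fluorescence intensity at 355/460 nm / Buffer or medium: pH 7.4 Tris-HCl (50 mM) with ovalbumin, ATP-MgCl2, DTT / Controls: wells without proteasome as full block, compound-free enzyme plus substrate as uninhibited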
Ecoli growth = E. coli growth inhibition, primary screen, OD600; Escherichia coli growth, 23 h; hits give low values; OD600 absorbance (test concentration not listed); 330,000 compounds, 0.21% hits;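 active means OD600 absorbance below the run mean of sample wells minus 3.6 SD, in any replicate, cut at about 0.56 in these data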;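 further: stock transfer was 300 nL into about 60 µL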
Active calls of the source: *; i = inactive. An excerpt (hit frequency here may not be typical).

SMILES	UCH37 DUB inh	Ecoli growth
Cc1cc(C)nc(SCC(=O)NN=Cc2ccc3c(c2)OCO3)n1	2.1	0.7
CC(=O)NN=C(C)c1cccc(C(F)(F)F)c1	2.1	0.7
Cc1ccc(N2CCN(N=Cc3cccs3)CC2)cc1	0.8	0.77
CON=CCC(=O)c1ccc(OC)cc1	2.3	0.68
CC(=NN1CCN(c2ccccc2)CC1)c1ccco1	3.1	0.68
O=C(NN=Cc1cccc(OC(=O)c2ccc([N+](=O)[O-])cc2)c1)c1cccnc1	5.4	0.67
O=C(NN=Cc1ccc(F)cc1)c1cc(OCC(F)(F)F)ccc1OCC(F)(F)F	0.9	0.7
O=C(NC(Cc1c[nH]c2ccccc12)C(=O)NN=Cc1cccnc1)c1cccs1 (stereo not given)	4.1	0.66
CCOC(=O)C(=NNc1cccc(C(F)(F)F)c1)N(CCOC)CCOC	6.2	0.72
CC(Cn1cnc([N+](=O)[O-])n1)=NNC(=O)c1ccc(O)cc1O	4.2	0.62
CCn1c(SCC(=O)NN=C(C)c2ccncc2)nnc1-c1ccc(C)cc1	4.0	0.67
COc1cc(C=NNC(=O)C(=O)NCc2ccco2)cc(Cl)c1O	9.2	0.63
COc1ccccc1N(CC(=O)NN=C(C)c1ccccc1O)S(=O)(=O)c1ccc(C)cc1	1.7	0.72
Cc1cc(NN=Cc2ccncc2)c([N+](=O)[O-])cc1[N+](=O)[O-]	7.8	0.69
O=C(NN=Cc1cccs1)c1cncc(Br)c1	6.3	0.66
COC(=O)c1ccc(CON=Cc2ccc(OC)cc2)o1	2.6	0.67
CC(C)c1c(C(=O)NN=Cc2cccc(OCc3ccc(F)cc3)c2)nnn1-c1nonc1N	1.6	0.66
Cc1ccc(C=NNC(=O)c2ccncc2)o1	18	0.7
O=C(NN=Cc1ccc(O)c(O)c1)C1c2ccccc2Oc2ccccc21	-1.2	0.78
O=C(CSCc1ccccc1Br)NN=Cc1ccc(OCC(=O)N2CCCCC2)cc1	1.4	0.69
CC(O)C(=O)NN=Cc1cccc(Cl)c1Cl (stereo not given)	3.8	0.67
CC(=NNC(=O)CNC(=O)CCc1ccccc1)c1ccc(Cl)cc1	3.6	0.62
COc1ccc(/C=C/C(=O)Oc2ccc(C=NNC(=O)c3ccncc3)cc2)cc1	-0.1	0.69
Cc1ccc(C(=O)NN=Cc2ccccn2)cn1	-0.8	0.67
NC(=O)COc1ccc(C=NNC(=O)c2ccc(-c3ccccc3)cc2)cc1	-173	0.73

Single entries from the entries so far:
UCH37 DUB inh result of NC(=O)COc1ccc(C=NNC(=O)c2ccc(-c3ccccc3)cc2)cc1 → -173
Ecoli growth result of O=C(NC(Cc1c[nH]c2ccccc12)C(=O)NN=Cc1cccnc1)c1cccs1 (stereo not given) → 0.66
Ecoli growth result of O=C(NN=Cc1ccc(F)cc1)c1cc(OCC(F)(F)F)ccc1OCC(F)(F)F → 0.7

Back to the main list, starting 4 compounds before the break.
SMILES	UCH37 DUB inh	Ecoli growth
CC(=NNC(=O)CNC(=O)CCc1ccccc1)c1ccc(Cl)cc1	3.6	0.62
COc1ccc(/C=C/C(=O)Oc2ccc(C=NNC(=O)c3ccncc3)cc2)cc1	-0.1	0.69
Cc1ccc(C(=O)NN=Cc2ccccn2)cn1	-0.8	0.67
NC(=O)COc1ccc(C=NNC(=O)c2ccc(-c3ccccc3)cc2)cc1	-173	0.73
COC(=O)NN=Cc1cc(N=Nc2ccccc2)ccc1O	6.9	0.71
O=C(CCN1CCN(c2ccccc2)CC1)NN=Cc1ccc([N+](=O)[O-])o1	9.5	0.61
CC(=O)OC1CC2(C)C(=NO)CCC2C2CCc3cc(O)ccc3C12 (stereo not given)	-2.6	0.65
Cc1c(N2C(=O)CSC2=NN=Cc2ccc(Cl)cc2)c(=O)n(-c2ccccc2)n1C	1.3	0.73
COc1ccccc1/C=C\C=Nn1c(C2CCCCC2)n[nH]c1=S	7.5	0.71
COc1ccc(C=NNC(=O)CC(=O)NN=Cc2ccc(OC)cc2)cc1	3.3	0.71
COc1cc(-c2nc3ccccn3c2N=Cc2cccc(F)c2)ccc1O	-42	0.7
O=C(ON=Cc1ccc(N2CCOCC2)c([N+](=O)[O-])c1)c1ccc(F)cc1	-4.4	0.74
CCOC(=O)C(=NNc1ccccc1Cl)N(C)C1CCS(=O)(=O)C1 (stereo not given)	10.0	0.65
Cn1c(=O)c2c(ncn2CC(=O)NN=Cc2c[nH]c3ccccc23)n(C)c1=O	4.0	0.62
CCOc1ccc(-c2c(C(=O)NN=Cc3ccsc3)nnn2-c2nonc2N)cc1	5.0	0.7
C(=NN=Cc1ccncc1)c1ccncc1	2.9	0.69
Cc1c(C=NNC(=O)C2COc3ccc(C(C)(C)C)cc3O2)c2ccccc2n1C (stereo not given)	5.4	0.71
O=C(NN=Cc1cc([N+](=O)[O-])cc([N+](=O)[O-])c1O)/C(=C\c1cccs1)NC(=O)c1ccccc1	12	0.69
CCN(CC)S(=O)(=O)c1cccc(C(=O)NN=Cc2ccccc2OCC(=O)O)c1	3.4	0.72
Cc1occc1C(=O)NN=Cc1ccccn1	-3.7	0.64
CCC(=NNC(=O)Cc1ccc(Br)cc1)c1cccs1	0.7	0.7
CNC(=S)NN=Cc1ccccc1Cl	6.4	0.74
CC(=NNc1ccc(S(N)(=O)=O)cc1[N+](=O)[O-])c1ccccc1O	0.8	0.75
CCOC(=O)c1c(-c2ccc(OC)cc2)csc1N=CC1=C(O)CCCC1=O	-27	0.64
O=C(COc1ccccc1)NN=Cc1sc(=O)n(Cc2cccc(C(=O)O)c2)c1Cl	8.3	0.63
CC(=NNc1ccc([N+](=O)[O-])cc1)c1c[nH]c2ccccc12	6.6	0.7
Cc1ccc2cc(C=NNc3ccc(C(=O)O)cc3)c(Cl)nc2c1	2.7	0.64
O=C(NN=C/C=C\c1ccco1)c1ccccn1	11	0.62
O=C(NN=Cc1cc(Br)ccc1O)Nc1ccccc1	-5.8	0.6

Next results follow:
SMILES	UCH37 DUB inh	Ecoli growth
O=c1[nH]c(-[n+]2ccccc2)c(C=NNC([S-])=Nc2ccccc2)s1	13	0.66
CCOc1cc(C=NNc2nc(-c3ccc(C)cc3)c(NC(C)=O)s2)ccc1O	-28	0.67
CSc1ccc(C=NN2CCN(Cc3ccc(Cl)cc3)CC2)cc1	4.4	0.68
Cc1cc2c(C)nc(NN=Cc3ccccc3)nc2o1	8.1	0.66
Oc1ccc(C=NNc2nc(N3CCCC3)nc(N3CCCC3)n2)cc1O	-5.7	0.67
CC(CC(=O)Nc1ccc([N+](=O)[O-])cc1)=NNC(=O)C1C2CCCCC21 (stereo not given)	4.5	0.63
CC(=NNC(=O)COc1cc(C)cc(C)c1)c1cccc(NC(=O)C2CCC2)c1	6.4	0.68
O=[N+]([O-])c1cc2c(cc1C=NNc1nc(Nc3ccccc3)nc(N3CCCCC3)n1)OCO2	5.4	0.75
CN(C)Cc1c(C(=O)NN=CCCc2ccccc2)nnn1-c1nonc1N	-0.8	0.65
O=[N+]([O-])c1ccc(NN=Cc2ccccc2)cc1	-2.5	0.67
CC(NC(=O)C12CC3CC(CC(C3)C1)C2)C(=O)NN=CC1=C(N2CCOCC2)/C(=C\c2cccc([N+](=O)[O-])c2)CC1 (stereo not given)	7.3	0.72
CCOc1ccc2nc(N=Cc3nc(-c4ccc(Br)cc4)oc3O)sc2c1	0.7	0.73
ON=Cc1cn(-c2ccccc2)nc1-c1cccnc1	-1.0	0.69
CN1C(=O)N(C)C2(c3ccccc3)Nn3c(sc(=Cc4ccccc4)c3=O)=NC12c1ccccc1 (stereo not given)	1.1	0.74
Cc1nn(-c2ccccc2)c(C)c1C=NNC(=O)c1cc(-c2cccc3ccccc23)n[nH]1	3.7	0.72
N/C(=N\N=Cc1ccc(Br)cc1)NN=Cc1ccc(Br)cc1	-2.3	0.6
CCC(=NNC(=O)CNC(=O)/C=C/c1ccco1)c1ccccc1	-0.7	0.7
CCN(CC)c1ccc([N+](=O)[O-])cc1C=NNC(=O)CC#N	7.3	0.66
Cc1ccc(N(CC(=O)NN=Cc2cccs2)S(C)(=O)=O)cc1Cl	3.6	0.75
COc1ccc(C=NNc2nc(Nc3ccccc3)nc(N3CCCC3)n2)cc1[N+](=O)[O-]	5.0	0.7
CC(C)Oc1ccccc1C=Nn1nnnc1N	-8.8	0.66
CC(=O)NN=C(C)CC(=O)Nc1cccc(C(F)(F)F)c1	2.9	0.71
O=C(NN=Cc1ccccc1)NC1CCCCC1	6.5	0.68
COc1ccc(NC(=O)ON=Cc2ccc(N(C)C)cc2)cc1	2.5	0.64
O=C(O)COc1ccccc1C=NNC(=O)CNC(=O)c1ccco1	6.0	0.64

Some of these compounds in order of heavy-atom count, descending.
SMILES	UCH37 DUB inh	Ecoli growth
CCOc1ccc2nc(N=Cc3nc(-c4ccc(Br)cc4)oc3O)sc2c1	0.7	0.73
ON=Cc1cn(-c2ccccc2)nc1-c1cccnc1	-1.0	0.69
O=[N+]([O-])c1ccc(NN=Cc2ccccc2)cc1	-2.5	0.67

(continued)
SMILES	UCH37 DUB inh	Ecoli growth
COc1ccc(C=NNC(=O)c2ccncc2)cc1COc1ccc(NC(C)=O)cc1	7.9	0.66
CON=C(CNC(=O)c1ccccc1Cl)c1ccc(Cl)cc1	-5.7	0.78
O=C(O)c1ccc(NN=Cc2ccc(-c3cc(Cl)ccc3Cl)o2)cc1	-57	0.68
COc1ccc(C=Nn2cnnc2)cc1Br	2.6	0.67
CCc1ccc(C=NNC(=O)c2cc(C)on2)s1	11	0.68
Cc1ccccc1C=NNC(=O)c1ccc(-n2cnnn2)cc1	1.0	0.72
O=c1c(=Cc2ccc(F)cc2)sc2n1CCCN=2	5.1	0.63
CCCCCCCC(=O)NN=C(C)c1c(O)cc(C)oc1=O	2.4	0.7
COc1ccc(Nc2nc(NCc3ccco3)nc(NN=Cc3ccccc3Cl)n2)cc1	-1.0	0.69
CC(CCc1ccc2c(c1)OCO2)=N/N=C1/NC(=O)CC(C(=O)Nc2ccccc2F)S1 (stereo not given)	3.5	0.7
CC(=NNC(=O)CCCNc1ccc(C)cc1)c1ccccn1	4.7	0.7
CC(C)COc1ccc(C(=O)NN=Cc2ccoc2)cc1	0.5	0.57
Cc1nn(-c2ccccc2)c(C)c1C=NNC(=O)c1ccccc1NS(=O)(=O)c1cccs1	-8.0	0.66
COc1ccc(N(CC(=O)NN=Cc2ccc(C(=O)O)cc2)S(=O)(=O)c2ccc(NC(C)=O)cc2)cc1	3.7	0.67
Cc1onc(-c2ccccc2)c1C(=O)NN=C/C=C/c1ccccc1	2.1	0.74
CCCc1cc(=O)[nH]c(NN=C/C=C\c2ccccc2)n1	10	0.65
CN(C)C=Nc1nc2nccc(-c3cccnc3)n2n1	i	0.68
c1ccc(NN=C(Cc2nc3ccccc3[nH]2)c2ccccc2)cc1	2.5	0.69
Cc1cc(C(=O)NN=Cc2cccc(OC(=O)c3cccc(Br)c3)c2)n[nH]1	-1.1	0.73
CC(=NNC(=O)c1cccs1)c1cccc(N)c1	6.4	0.65
Cc1cc(C(=O)NN=Cc2ccco2)c2ccccc2n1	2.4	0.69
O=C(Cn1cncn1)NN=Cc1c2ccccc2cc2ccccc12	0.4	0.74
Cc1no[n+]([O-])c1COc1ccc(C=Nn2nnnc2N)cc1	3.2	0.71
S=c1[nH]nc(-c2cc(-c3ccccc3)n[nH]2)n1N=Cc1c2ccccc2cc2ccccc12	8.4	0.7
CC(CC1(O)C(=O)N(C)c2ccccc21)=NO (stereo not given)	3.4	0.66

An excerpt of these results, as a markdown table:
| Molecule | UCH37 DUB inh | Ecoli growth |
| --- | --- | --- |
| CCc1ccc(C=NNC(=O)c2cc(C)on2)s1 | 11 | 0.68 |
| Cc1ccccc1C=NNC(=O)c1ccc(-n2cnnn2)cc1 | 1.0 | 0.72 |
| O=c1c(=Cc2ccc(F)cc2)sc2n1CCCN=2 | 5.1 | 0.63 |

(continued)
SMILES	UCH37 DUB inh	Ecoli growth
CC(=NNC(=O)COc1cc(C)cc(C)c1)c1ccc(N2CCOCC2)cc1	-3.6	0.7
CCN(CC)c1ccc(C=NN2CCN(Cc3ccc(C)cc3)CC2)cc1	2.0	0.69
CC(=NNC(=O)c1cccs1)C(C)(C)C	3.3	0.7
Cc1cccc(C(=O)NN=Cc2cc(Br)c(Br)o2)c1	-0.5	0.6
COc1ccccc1/C=C/C=Nn1c(-c2ccncc2)n[nH]c1=S	8.0	0.67
CC(=NNC(=O)c1ccc(C(C)(C)C)cc1)c1cccnc1	1.8	0.63
Cn1cc(C(=O)c2ccc(Cl)cc2Cl)cc1C(=O)NN=C(N)COc1cccc(C(F)(F)F)c1	-1.6	0.7
CCOC(=O)NN=Cc1ccc(Oc2ccccc2)cc1	5.7	0.66
Cc1ccc(CN2CCN(N=Cc3cccnc3)CC2)cc1	3.5	0.69
COc1ccc(-c2nn(CCC#N)cc2C=NO)cc1OC	-0.8	0.7
C[N+](C)(C)c1ccc(C=NNc2nc(Cl)c(C#N)c(Cl)c2Cl)cc1	11	0.66
COc1ccc(C(=O)NN=Cc2ccc(OC(=O)c3cccs3)cc2)cc1	-1.8	0.62
COc1ccc(C(=O)NN=C/C(Br)=C/c2ccccc2)cc1	8.1	0.62
CC(=NNC(N)=S)C1(C)CCCCC1	5.6	0.64
Cc1nc(NN=Cc2ccc(O)cc2)c2cnn(-c3ccccc3)c2n1	-16	0.67
CCn1c(C(C#N)=NO)nc2ccccc21	5.1	0.69
Cc1cc([N+](=O)[O-])cc(C=Nn2c(C)nc3ccccc3c2=O)c1O	13	0.66
Cc1nn(-c2ccccc2)c(N2CCCC2)c1C=NNC(=O)c1cc(-c2ccccc2)nc2ccccc12	3.8	0.73
Cc1nc2ccccn2c1C(=O)NN=Cc1ccc([N+](=O)[O-])o1	18	0.52*

High-throughput results as filed in PubChem.
